RN4220 kill: kills Staphylococcus aureus RN4220. S. aureus RN4220 growth, OD600, 16 h. inhibition, % (concentration not given with the values). hit rate 0.33% among 330,000. AID 1259311;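 active = z-score of -3 or lower and OD600 up to 0.18 on both plates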;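 also: plate controls were untreated cells for no effect and reference antibiotic for full effect; stock transfer was 100 nL into about 80 µL; one replicate is shown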
Mtb hypoxia rep: reduces hypoxia-regulated biosensor signal in M. tuberculosis | fluorescence inhibition, % (no concentration beside the values) | M. tuberculosis hypoxia-regulated fluorescent reporter, fluorescence | AID 1159583 | hit rate 0.1% among 300,000;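 active = 35 to 45% if threefold the growth effect, above 45% if 1.5-fold the growth effect; inactive = the rest, general growth blockers included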;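 also: wells of about 50 µL received 100 nL stock; 0% = vehicle wells and 100% = reference inhibitor wells; whole bacteria with a GFP reporter of the hypoxia response; strong numbers were not always called active; many hits fall short of the cut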
ugtP null kill: growth inhibition of S. aureus ugtP deletion strain; S. aureus RN4220 ugtP deletion, OD600 growth, 16 h; some inactives read as strong as hits; growth inhibition, % (concentration not given with the values); hit rate 0.54% among 330,000;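 active = z-score under -3 and OD600 up to 0.15 on both plates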;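 also: plate controls were untreated wells for no effect and antibiotic for full effect; wells of about 80 µL received 100 nL stock; the first replicate is given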
BJeLR viability: BJeLR cell viability loss | AID 1554 | inhibition, % (concentration not given with the values) | BJeLR (HRASV12) viability, CellTiter-Glo ATP luminescence, 48 h; reference of the scale not given here | hit rate 0.17% among 300,000;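 active = replicate mean above 50%; inconclusive = above 50% but judged a plate artefact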;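 also: 50 nL library stock added to about 25 µL; numbers are from one replicate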
PrP UTR inh: inhibition of PrP 5' UTR reporter expression. hit rate 0.35% among 340,000. inhibition, % (no concentration beside the values). AID 488862. cell-based PrP 5' UTR mRNA reporter, plate reader;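 active = every replicate at 50% or more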;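 also: 0 = median of the neutral control wells; tested in H4 reporter cells; numbers are from one replicate; inactives centre near -14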
Autofluor counter: counter-screen for toxin protease inhibitors: compound fluorescence; compound autofluorescence counterscreen, microsphere flow cytometry; active compounds read high; fluorescence intensity (test concentration not listed); hit rate 3.1% among 360,000; AID 624483;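 active = at least 3 SD above the mean of all compounds, about 16000 in these data; inconclusive = too few beads counted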;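 also: 100 nL of 1 mM stock went into each well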
Mtb hypoxia rep growth: second read-out of Mtb hypoxia rep, no call of its own (marks repeat the call); growth inhibition, %; measured here: M. tuberculosis growth (absorbance);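 0% = vehicle and 100% = reference antibiotic; read after six days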
An asterisk follows results filed as active. Outcome played no part in choosing rows. About 4% of those tested had a hit in this group.

Results for C#CC(C)(CC)NC(=O)c1cc(OC)c(OC)c(OC)c1 (stereo not drawn) ?
RN4220 kill: 4.9; Mtb hypoxia rep: 14; ugtP null kill: 8; BJeLR viability: -3; PrP UTR inh: -10; Autofluor counter: 2525; Mtb hypoxia rep growth: 9

How did CCCCOC(=O)Cn1c(=N)n(CCC)c2ccccc21 do in these assays?
RN4220 kill: 3.7; ugtP null kill: 6; BJeLR viability: 9; PrP UTR inh: -22; Autofluor counter: 2582

What do the screens show for `Cc1ccc(OCC(=NO)C(C)(C)C)c([N+](=O)[O-])c1`?
RN4220 kill: 7.4; Mtb hypoxia rep: 9; ugtP null kill: 6; Mtb hypoxia rep growth: 6

Results for Cc1ccc(C)c(C(=O)COC(=O)c2cc([N+](=O)[O-])ccc2NCCO)c1 ?
RN4220 kill: 3.5; Mtb hypoxia rep: 8; ugtP null kill: 8; BJeLR viability: 9; PrP UTR inh: -14; Autofluor counter: 9284; Mtb hypoxia rep growth: 2

Results for COCCOc1cc(Nc2nnc(C(F)(F)F)s2)c(Cl)cc1Cl ?
RN4220 kill: -0.1; ugtP null kill: 15; BJeLR viability: 2; PrP UTR inh: -12; Autofluor counter: 4952

Results for Cc1cccc(NS(=O)(=O)c2cccs2)n1 ?
RN4220 kill: 3.2; Mtb hypoxia rep: 6; ugtP null kill: 4; BJeLR viability: 8; PrP UTR inh: -18; Autofluor counter: 10991; Mtb hypoxia rep growth: 4

What do the screens show for `O=C(COC(=O)c1n[nH]c2ccccc12)NC(=O)NCc1ccco1`?
RN4220 kill: -0.2; ugtP null kill: -6; BJeLR viability: -1; PrP UTR inh: -15; Autofluor counter: 3736

How did CC(C)CC(=O)Nc1ccc(C(=O)Cn2c(=O)oc3ccccc32)cc1 do in these assays?
RN4220 kill: -2.1; Mtb hypoxia rep: 6; ugtP null kill: 0; BJeLR viability: -6; PrP UTR inh: -15; Autofluor counter: 2127; Mtb hypoxia rep growth: 12

How did CC(=NO)c1ccc(N2C(=O)C3C4C=CC(C3C2=O)C2C3C(=O)N(c5ccc(C(C)=NO)cc5)C(=O)C3C42)cc1 (stereo not drawn) do in these assays?
RN4220 kill: -3.8; Mtb hypoxia rep: 3; ugtP null kill: -10; Mtb hypoxia rep growth: -8

How did CSc1nc(NCc2ccccc2)c2c3c(sc2n1)CN(C)CC3 do in these assays?
RN4220 kill: -7.2; Mtb hypoxia rep: -2; ugtP null kill: -12; BJeLR viability: -15; PrP UTR inh: -15; Autofluor counter: 7443; Mtb hypoxia rep growth: -7

What do the screens show for `CC1CCCN(CC(O)COC(c2ccccc2)c2ccccc2)C1` (stereo not drawn)?
RN4220 kill: -0.2; Mtb hypoxia rep: -4; ugtP null kill: 7; BJeLR viability: 5; PrP UTR inh: -12; Autofluor counter: 4130; Mtb hypoxia rep growth: 1

What do the screens show for `O=C1c2cccc3cc(Br)cc(c23)C(=O)N1Nc1ccccc1`?
RN4220 kill: 0.5; ugtP null kill: -3; BJeLR viability: 2; PrP UTR inh: 4; Autofluor counter: 3774

Results for Cc1ccc(C(C)(C)C)cc1S(=O)(=O)N1CC(=O)Nc2ccccc21 ?
RN4220 kill: 8.1; Mtb hypoxia rep: -10; ugtP null kill: -6; BJeLR viability: -12; PrP UTR inh: -2; Autofluor counter: 2827; Mtb hypoxia rep growth: -14

Results for COc1ccc(CNCCCO)cc1OC ?
RN4220 kill: 1.2; Mtb hypoxia rep: -6; ugtP null kill: -2; BJeLR viability: -7; PrP UTR inh: -12; Autofluor counter: 11238; Mtb hypoxia rep growth: 6

How did O=c1c(-c2cnn(-c3ccccc3)c2)coc2cc(O)ccc12 do in these assays?
RN4220 kill: 16; Mtb hypoxia rep: 2; ugtP null kill: -11; BJeLR viability: 7; PrP UTR inh: -56; Autofluor counter: 4680; Mtb hypoxia rep growth: 17

What do the screens show for `Cc1nc(-c2ccccc2)sc1C1(C)CC(c2ccccc2F)=NO1` (stereo not drawn)?
RN4220 kill: 10; Mtb hypoxia rep: 13; ugtP null kill: 21; BJeLR viability: 4; PrP UTR inh: -18; Autofluor counter: 4108; Mtb hypoxia rep growth: 10

What do the screens show for `Nc1nc(CSc2nc3ccccc3[nH]2)nc(N2CCOCC2)n1`?
RN4220 kill: -14; Mtb hypoxia rep: 15; ugtP null kill: 2; BJeLR viability: 1; PrP UTR inh: -6; Autofluor counter: 3259; Mtb hypoxia rep growth: 3

Results for CC1=NN(C(=O)c2ccccc2Cl)C(O)(c2cccnc2)C1 (stereo not drawn) ?
RN4220 kill: 8.7; Mtb hypoxia rep: 7; ugtP null kill: 2; BJeLR viability: 9; PrP UTR inh: -38; Autofluor counter: 4330; Mtb hypoxia rep growth: -5

Results for COc1ccccc1C(O)(c1ccccc1)C(CN1CCOCC1)c1ccccc1 (stereo not drawn) ?
RN4220 kill: 9.1; Mtb hypoxia rep: 19; ugtP null kill: 33; BJeLR viability: -2; PrP UTR inh: -20; Autofluor counter: 4573; Mtb hypoxia rep growth: 12

How did CCOc1ccc(C(=O)NNC2CC(=O)N(CCc3ccccc3)C2=O)cc1OC (stereo not drawn) do in these assays?
RN4220 kill: 1.6; Mtb hypoxia rep: 7; ugtP null kill: 5; BJeLR viability: 1; PrP UTR inh: -3; Autofluor counter: 2686; Mtb hypoxia rep growth: 2

How did CCn1c(C)csc1=NC(=O)c1ccccc1O do in these assays?
RN4220 kill: 4.1; ugtP null kill: 11; BJeLR viability: 3; PrP UTR inh: -50; Autofluor counter: 8870

What do the screens show for `CCOP(=O)(Cc1ccc(C#N)o1)OCC`?
RN4220 kill: 1.8; Mtb hypoxia rep: 2; ugtP null kill: -2; BJeLR viability: -3; PrP UTR inh: -19; Autofluor counter: 4663; Mtb hypoxia rep growth: 1

What do the screens show for `CCN(CC(=O)Nc1c(F)cccc1F)C(=O)CSc1ccc(F)cc1`?
RN4220 kill: 5.3; Mtb hypoxia rep: 0; ugtP null kill: 6; BJeLR viability: 8; PrP UTR inh: -41; Autofluor counter: 5597; Mtb hypoxia rep growth: -6

Results for COc1ccc(NC(=O)c2csc(Cc3ccc(Cl)cc3)n2)cc1 ?
RN4220 kill: 1.4; Mtb hypoxia rep: 13; ugtP null kill: 11; BJeLR viability: 9; PrP UTR inh: -3; Autofluor counter: 4780; Mtb hypoxia rep growth: 5

How did COc1ccc(C(CNC(=O)c2cc(S(=O)(=O)N3CCN(c4ccccc4)CC3)ccc2Cl)N(C)C)cc1 (stereo not drawn) do in these assays?
RN4220 kill: -3.6; Mtb hypoxia rep: -5; ugtP null kill: -1; PrP UTR inh: -5; Autofluor counter: 8758; Mtb hypoxia rep growth: -7

Results for CCOC(=O)C1(CCOC)CCN(Cc2ccncc2)CC1 ?
RN4220 kill: 0.6; Mtb hypoxia rep: 6; ugtP null kill: 4; BJeLR viability: 5; PrP UTR inh: -16; Autofluor counter: 4389; Mtb hypoxia rep growth: 0

What do the screens show for `S=C(NC1CCCCC1)N1CCN(c2ncccn2)CC1`?
RN4220 kill: -0.2; Mtb hypoxia rep: -6; ugtP null kill: -14; PrP UTR inh: -21; Autofluor counter: 3312; Mtb hypoxia rep growth: 4

Results for O=C(N/C(=C\c1ccc(Cl)cc1)C(=O)N1CCCCC1)c1ccco1 ?
RN4220 kill: 6.0; Mtb hypoxia rep: 0; ugtP null kill: 4; BJeLR viability: -1; PrP UTR inh: 6; Autofluor counter: 5799; Mtb hypoxia rep growth: 0

Results for COc1ccc2nc(N=C(N)NC(=O)Nc3ccccc3)nc(C)c2c1 ?
RN4220 kill: 12; Mtb hypoxia rep: -14; ugtP null kill: -3; Mtb hypoxia rep growth: -1

What do the screens show for `NS(=O)(=O)c1ccc(CNC(=O)/C=C/c2ccccc2)cc1`?
RN4220 kill: 1.8; ugtP null kill: 4; BJeLR viability: -2; PrP UTR inh: -19; Autofluor counter: 2811

What do the screens show for `COC(CNC(=O)[C@H](CSCc1ccccc1)N1Cc2ccccc2C1=O)OC`?
BJeLR viability: 5; PrP UTR inh: 2; Autofluor counter: 2603

Results for O=C(CCN1C(=O)/C(=C\c2ccccc2F)SC1=S)Nc1ccc(C(=O)O)c(O)c1 ?
BJeLR viability: 4; PrP UTR inh: -13; Autofluor counter: 5058

How did COc1ccc2oc(-c3ccc(C)c(NC(=O)c4ccc(N5CCOCC5)c([N+](=O)[O-])c4)c3)nc2c1 do in these assays?
RN4220 kill: 7.5; Mtb hypoxia rep: 0; ugtP null kill: 9; BJeLR viability: -7; PrP UTR inh: -59; Autofluor counter: 7670; Mtb hypoxia rep growth: 2

How did CC[C@@]1(C(=O)OC)N[C@H](CN(C)C(=O)Nc2ccccc2)[C@@H]2C(=O)N(C)C(=O)[C@@H]21 do in these assays?
RN4220 kill: 1.4; Mtb hypoxia rep: 1; ugtP null kill: 0; PrP UTR inh: -9; Autofluor counter: 3770; Mtb hypoxia rep growth: -2

Results for CCOC(=O)N1CCN(C(=O)c2ccc(CS(=O)c3ccccc3)o2)CC1 (stereo not drawn) ?
RN4220 kill: 0.5; Mtb hypoxia rep: 1; ugtP null kill: 2; BJeLR viability: -10; PrP UTR inh: -8; Autofluor counter: 6658; Mtb hypoxia rep growth: 4

Results for CCc1ccc2nc(NC(=O)c3cc(C)on3)sc2c1 ?
RN4220 kill: 1.8; ugtP null kill: -6; BJeLR viability: 4; PrP UTR inh: -57; Autofluor counter: 2568

Of the compounds above, 2 contain an NH in an aromatic ring.
What do the screens show for `O=C(COC(=O)c1n[nH]c2ccccc12)NC(=O)NCc1ccco1`?
RN4220 kill: -0.2; ugtP null kill: -6; BJeLR viability: -1; PrP UTR inh: -15; Autofluor counter: 3736

What do the screens show for `Nc1nc(CSc2nc3ccccc3[nH]2)nc(N2CCOCC2)n1`?
RN4220 kill: -14; Mtb hypoxia rep: 15; ugtP null kill: 2; BJeLR viability: 1; PrP UTR inh: -6; Autofluor counter: 3259; Mtb hypoxia rep growth: 3

Next section.
How did CCCOc1ccc(Cn2c(=O)oc3ccc(C)cc32)cc1 do in these assays?
RN4220 kill: 13; Mtb hypoxia rep: 4; ugtP null kill: 7; BJeLR viability: 1; PrP UTR inh: -27; Autofluor counter: 4916; Mtb hypoxia rep growth: 0

How did Cc1ccccc1NC(=S)NC(NC(=O)C(C)(C)C)C(Cl)(Cl)Cl (stereo not drawn) do in these assays?
RN4220 kill: 4.1; Mtb hypoxia rep: -5; ugtP null kill: -8; BJeLR viability: 5; PrP UTR inh: 4; Autofluor counter: 3889; Mtb hypoxia rep growth: 9

How did COCCCn1c(C)nnc1SCC(=O)Nc1ccc(C(C)=O)cc1 do in these assays?
RN4220 kill: 0.6; Mtb hypoxia rep: -4; ugtP null kill: 14; BJeLR viability: -11; PrP UTR inh: -11; Autofluor counter: 3260; Mtb hypoxia rep growth: -5

Results for O=C(Nc1ccc(OCC(=O)N2CCN(S(=O)(=O)c3ccccc3)CC2)cc1)c1ccco1 ?
RN4220 kill: 3.7; Mtb hypoxia rep: -3; ugtP null kill: -6; BJeLR viability: -14; PrP UTR inh: -5; Autofluor counter: 4092; Mtb hypoxia rep growth: 5

What do the screens show for `COc1ccc(C(=O)NCCS(=O)(=O)N2CCCC2)cc1`?
BJeLR viability: 6; PrP UTR inh: -23; Autofluor counter: inconclusive

How did COC(=O)C1=C(C)N(CC(C)C)C(=O)C1=Cc1cccs1 do in these assays?
RN4220 kill: 15; Mtb hypoxia rep: 10; ugtP null kill: -11; Mtb hypoxia rep growth: 6

Results for Cc1ccc(-c2nnc(SCC(=O)NC3CCCc4ccccc43)n2N)cc1 (stereo not drawn) ?
RN4220 kill: 4.3; Mtb hypoxia rep: 4; ugtP null kill: -6; BJeLR viability: 3; PrP UTR inh: -12; Autofluor counter: 8723; Mtb hypoxia rep growth: 3

Ordered by length of the SMILES (rising): 3 of the compounds above
How did COCCCn1c(C)nnc1SCC(=O)Nc1ccc(C(C)=O)cc1 do in these assays?
RN4220 kill: 0.6; Mtb hypoxia rep: -4; ugtP null kill: 14; BJeLR viability: -11; PrP UTR inh: -11; Autofluor counter: 3260; Mtb hypoxia rep growth: -5

Results for Cc1ccc(-c2nnc(SCC(=O)NC3CCCc4ccccc43)n2N)cc1 (stereo not drawn) ?
RN4220 kill: 4.3; Mtb hypoxia rep: 4; ugtP null kill: -6; BJeLR viability: 3; PrP UTR inh: -12; Autofluor counter: 8723; Mtb hypoxia rep growth: 3

Results for O=C(Nc1ccc(OCC(=O)N2CCN(S(=O)(=O)c3ccccc3)CC2)cc1)c1ccco1 ?
RN4220 kill: 3.7; Mtb hypoxia rep: -3; ugtP null kill: -6; BJeLR viability: -14; PrP UTR inh: -5; Autofluor counter: 4092; Mtb hypoxia rep growth: 5
